# YB-1 expr inh – YB-1 expression inhibition. U2OS, qRT-PCR YB-1 vs CDIP delta delta Cp, 16 h; stronger effect = higher value; zero = DMSO, each unit about twofold. delta delta Cp (YB-1 minus CDIP) (test concentration not listed). 30,000 compounds, 0.37% hits. AID 434959;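 active means delta delta Cp rounded down to an integer at or above 3, about 3 SD of DMSO wells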;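 further: higher means less YB-1 transcript or more CDIP transcript relative to DMSO; stock transfer was 100 nL into about 100 µL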
# Shh pathway inh – blocks Sonic Hedgehog signaling | Shh-LIGHT2 Gli-luciferase reporter, 30 h | 22,000 compounds, 2.1% hits | inhibition, % (test concentration not listed) | AID 2313;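 active means replicate mean of 65% or more; inconclusive means mean lower but half the replicates past it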;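 further: pathway switched on by Shh-conditioned medium diluted 1 in 25 in low serum; 100 nL library stock added to about 40 µL; 0% = median of neutral wells and 100% = positive control level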
# PD-1 reversal – activators reversing PD-1 mediated T-cell inhibition | 29,000 tested, under 10 active | primary human CD4 T cells, PD-L1 beads, CellTiter-Glo 96 h | activation, % (test concentration not listed);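 active means replicate mean of 50% or more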;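 further: 0% = median vehicle wells and 100% = positive control; 100 nL library stock added to about 50 µL; numbers are from one replicate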
# MITF inh – blocks MITF activity; TRPM1 promoter luciferase, luminescence, 24 h; inhibition, % (no concentration beside the values); 37,000 compounds, 0.28% hits;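 active means most replicates at 85% or more, or half of them and the mean; inconclusive means half reach 85% but not the mean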;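 further: human melanocyte line stably carrying TRPM1 promoter luciferase reporter; 0% = vehicle wells and 100% = a positive control; the first replicate is given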
# * marks the source's active call; other numbers are inactive results; ? = inconclusive; · = no result given. Only part of the results is shown, so the mix of outcomes need not match the whole.
# Results follow in this order: YB-1 expr inh, Shh pathway inh, PD-1 reversal, MITF inh
C[C@H](CO)N1C[C@H](C)[C@H](CN(C)Cc2ccc(C(=O)O)cc2)Oc2c(cccc2N(C)C)C1=O
  -0.47, 37, ·, -4
C[C@H](CO)N1C[C@H](C)[C@H](CN(C)C(=O)Nc2ccc(C(F)(F)F)cc2)Oc2ccc(NC(=O)Cc3cn(C)c4ccccc34)cc2CC1=O
  -0.043, -2, 0.7, 29
COc1ccc(NC(=O)C2CC(=O)n3c(nc4ccccc43)N2)cc1 (centres undefined)
  ·, ·, 1.0, 12
CC[C@H]1OC(=O)[C@H](C)[C@@H](OC2C[C@@](C)(OC)[C@@H](O)[C@H](C)O2)[C@H](C)[C@@H](O[C@@H]2O[C@H](C)C[C@H](N(C)C)[C@H]2O)[C@](C)(O)C[C@@H](C)/C(=N\OCOCCOC)[C@H](C)[C@@H](O)[C@]1(C)O (some centres undefined)
  -0.3, -33, 3.4, -2
CCn1c(SCc2nc(-c3cccs3)no2)nnc1-c1c[nH]c2ccccc12
  ·, ·, -0.3, 15
Nc1ccc(-c2nc3ccccc3[nH]2)cc1
  0.42, ·, 0.2, 78
COC(=O)c1cc(OC)c(OC)cc1NC(=O)C1c2ccccc2Oc2ccccc21
  ·, ·, -1.8, 4
COc1ccc(C(=O)C(C)Oc2ccc(NC(=O)c3cccc(OC)c3)cc2)cc1 (centres undefined)
  ·, ·, -5.3, 45
C[C@@H]1CN([C@H](C)CO)C(=O)Cc2cc(NC(=O)CCN3CCOCC3)ccc2O[C@H]1CN(C)Cc1ccncc1
  0.23, -10, -1.0, 1
COc1ccc(NC(=O)N(C)C[C@H]2OCCCC[C@@H](C)Oc3ccc(NC(=O)c4ccccc4)cc3C(=O)N([C@H](C)CO)C[C@@H]2C)cc1
  -0.12, 2, ·, 2
CN1C(=O)c2ccccc2-n2c(nc3ccccc3c2=O)[C@@]12O[C@H]2c1ccccc1
  0.57, 3, -2.6, 0
CCCCCc1ccc(/C=C/C(=O)Nc2ccccc2C(=O)O)cc1
  -0.56, 24, 5.7, -2
C[C@@H]1CN([C@@H](C)CO)C(=O)Cc2cc(NC(=O)Nc3ccc(C(F)(F)F)cc3)ccc2O[C@@H]1CN(C)S(C)(=O)=O
  0.094, ·, -0.5, 14
Cc1ccc(S(=O)(=O)Nc2cccc3c2O[C@H](CN(C)S(=O)(=O)c2ccccc2)[C@@H](C)CN([C@@H](C)CO)C3=O)cc1
  -0.048, -16, -1.0, -4
O=S(=O)(Nc1ncccn1)c1ccc(NC(=S)N2CCN(c3ncccn3)CC2)cc1
  ·, ·, 0.1, -15
CC(C)NC(=O)N(C)C[C@@H]1Oc2ccc(NC(=O)CCCCCC(=O)Nc3ccccc3N)cc2C(=O)N([C@H](C)CO)C[C@H]1C
  -0.43, ·, 1.1, -8
CCCCN1C(C)=NC(C(F)(F)F)(C(F)(F)F)C2=C1CC(C)(C)CC2=O
  -0.27, -10, 0.2, -17
COc1ccc(-c2nnc3c4ccccc4c(C)nn23)cc1S(=O)(=O)NCC1CCCO1 (centres undefined)
  ·, ·, -1.8, -14
C[C@@H]1CN([C@H](C)CO)C(=O)c2cccc(NS(=O)(=O)c3cccs3)c2O[C@H]1CN(C)Cc1ccc(-c2ccccc2)cc1
  -0.11, -3, 1.7, -9
CNC[C@@H]1Oc2c(NS(C)(=O)=O)cccc2C(=O)N([C@H](C)CO)C[C@H]1C
  0.19, -8, 0.5, 1
CCn1c(SCC(=O)c2ccc(C)cc2)nnc1-c1ccncc1
  ·, ·, -1.2, -35
O=C(CSc1nc2ccccc2c(=O)n1-c1cccc(Cl)c1)Nc1cccc(Cl)c1
  ·, ·, -6.9, 7
O=C(CSc1ncn[nH]1)Nc1nsc(-c2ccc(Cl)cc2)n1
  ·, ·, 1.3, -79
C[C@H](CO)N1C[C@H](C)[C@H](CN(C)S(=O)(=O)c2ccc(F)cc2)Oc2ccc(NC(=O)Cn3cnnn3)cc2C1=O
  0.53, -12, 0.5, -1
NC(=NC(=O)c1cccc(C(F)(F)F)c1)c1ccc(C(F)(F)F)cn1
  0.34, -49, 0.0, -37
C[C@H](CO)N1C[C@H](C)[C@@H](CN(C)S(=O)(=O)c2ccc(F)cc2)Oc2c(NC(=O)NC3CCCCC3)cccc2C1=O
  0.0012, -145, -2.8, 9
C[C@@H]1CN([C@H](C)CO)C(=O)c2cccc(NS(=O)(=O)c3ccc(Cl)cc3)c2O[C@@H]1CN(C)Cc1ccc(Oc2ccccc2)cc1
  -0.22, 24, -0.5, -9
COc1ccc(S(=O)(=O)N(C)C[C@H]2Oc3c(NC(=O)c4ccncc4)cccc3C(=O)N([C@@H](C)CO)C[C@@H]2C)cc1
  -0.76, -33, 1.4, -6
C[C@H](CO)N1C[C@H](C)[C@H](CN(C)S(=O)(=O)c2ccccc2)Oc2ccc(N(C)C)cc2CC1=O
  -0.06, 42, 1.5, -9
C[C@@H]1CN([C@H](C)CO)C(=O)c2cc(NC(=O)Cc3cn(C)c4ccccc34)ccc2O[C@@H]1CN(C)Cc1ccc(-c2ccccc2)cc1
  0.02, ·, ·, 7
COc1ccc(CN(C)C[C@@H]2Oc3ccc(NC(=O)NC(C)C)cc3CC(=O)N([C@H](C)CO)C[C@H]2C)cc1
  0.35, 18, ·, -29
Cn1c(SCC(=O)Nc2ccccc2F)nnc1-c1cc2ccccc2o1
  ·, ·, -1.1, -26
Cc1scc(C(=O)NCCc2ccc(S(N)(=O)=O)cc2)c1-c1ccccc1
  ·, ·, 0.2, 6
N#C/C(=C\c1ccc(O)c(O)c1)C(=O)NCCCc1ccccc1
  0.39, 86*, -1.6, 3
COC(=O)CNC(=O)c1cc(OC)c(OC)c(OC)c1
  0.27, -10, -0.9, 24
C[C@@H]1CN([C@H](C)CO)C(=O)c2cc(NC(=O)C3CC3)ccc2O[C@@H]1CN(C)S(=O)(=O)c1ccc(Cl)cc1
  0.1, ·, 0.9, -26
O=C(Nc1ccccc1)Nc1cc(C2CC2)nn1-c1ccccc1
  0.2, -38, -0.2, 5
Cc1ccc(-c2nnc(SCC(=O)Nc3ccccc3N3CCOCC3)o2)cc1
  ·, ·, 0.5, -67
C[C@@H]1CN([C@@H](C)CO)C(=O)c2cc(NS(=O)(=O)c3cccs3)ccc2O[C@H]1CN(C)S(=O)(=O)c1ccc(F)cc1
  0.12, 33, -0.3, 2
COc1ccc(S(=O)(=O)N(C)C[C@H]2Oc3c(NC(=O)C4CCCCC4)cccc3C(=O)N([C@H](C)CO)C[C@@H]2C)cc1
  -0.34, -33, -0.6, -10
C[C@@H]1CN([C@@H](C)CO)C(=O)c2cccc(NS(=O)(=O)c3ccccc3)c2O[C@@H]1CN(C)Cc1ccncc1
  -0.085, -51, ·, -9
C[C@@H]1CN([C@H](C)CO)C(=O)c2cc(NC(=O)Nc3ccccc3)ccc2O[C@@H]1CN(C)Cc1ccc(C(=O)Nc2ccccc2N)cc1
  0.18, ·, -3.5, 11
C[C@H]1CN([C@@H](C)CO)C(=O)Cc2cc(NC(=O)C3CCCCC3)ccc2O[C@@H]1CN(C)S(=O)(=O)c1ccc(F)cc1
  0.24, 15, ·, 6
O=C(CSc1nnc(-c2cccs2)n1-c1cccc(C(F)(F)F)c1)c1ccc(F)cc1
  ·, ·, -3.7, 27
C[C@H](CO)N1C[C@H](C)[C@@H](CN(C)C(=O)Nc2ccc(C(F)(F)F)cc2)Oc2ccc(NS(=O)(=O)c3cn(C)cn3)cc2C1=O
  -0.21, 33, ·, -4
O=C(c1ccccc1)c1cnc2ccccn2c1=O
  0.14, -16, 0.0, -25
Cc1noc(C)c1S(=O)(=O)Nc1cccc2c1O[C@H](CN(C)S(C)(=O)=O)[C@H](C)CN([C@H](C)CO)C2=O
  0.63, -47, 1.3, -8
O=C(NCCO)c1cc2ccccc2oc1=O
  0.13, ·, 0.3, 4
C[C@H](CO)N1C[C@H](C)[C@H](CN(C)Cc2ccc3c(c2)OCO3)Oc2ccc(NS(=O)(=O)c3ccc(F)cc3)cc2C1=O
  -0.31, 22, -1.0, -1
C[C@@H]1CCCCO[C@H](CN(C)C(=O)Nc2ccc(C(F)(F)F)cc2)[C@@H](C)CN([C@H](C)CO)C(=O)c2cc(NS(=O)(=O)c3cn(C)cn3)ccc2O1
  -0.16, -18, ·, 17
C[C@H]1CN([C@@H](C)CO)C(=O)Cc2cc(NC(=O)c3ccncc3)ccc2O[C@H]1CN(C)S(=O)(=O)c1ccc(Cl)cc1
  -0.37, -4, -0.8, -10
C=CCSc1nnc2c(n1)OC(c1ccc(-c3ccc(F)cc3)o1)N(C(C)=O)c1ccccc1-2 (centres undefined)
  0.17, 9, -0.3, -3
CC(C)NC(=O)N(C)C[C@@H]1Oc2c(NC(=O)Nc3ccc(C(F)(F)F)cc3)cccc2C(=O)N([C@H](C)CO)C[C@@H]1C
  0.44, 17, -4.8, 27
CNC[C@H]1Oc2ccc(NC(=O)Cc3cn(C)c4ccccc34)cc2C(=O)N([C@H](C)CO)C[C@@H]1C
  0.23, ·, -1.2, 15
COc1ccc(OC)c(NC(=O)c2ccc(Cl)c(S(=O)(=O)Nc3ccc(C)cc3)c2)c1
  ·, ·, -1.6, 16
O=C1CCc2cc(C3=CSC4=NCCN34)ccc2N1
  -0.46, -70, 3.8, -42
C[C@H](CO)N1C[C@H](C)[C@@H](CN(C)C(=O)Nc2cccc3ccccc23)Oc2ccc(NC(=O)Cn3cnnn3)cc2C1=O
  -0.2, -3, ·, 8
C[C@@H]1CN([C@@H](C)CO)C(=O)Cc2cc(NS(=O)(=O)c3cccs3)ccc2O[C@@H]1CN(C)S(=O)(=O)c1ccccc1
  -0.055, -22, -1.5, -6
CC(C)NC(=O)N(C)C[C@@H]1Oc2c(NS(C)(=O)=O)cccc2C(=O)N([C@@H](C)CO)C[C@H]1C
  -0.049, -3, 2.2, -6
Cc1noc(C)c1NC(=O)Nc1cccc2c1O[C@@H](CN(C)Cc1ccc(C(=O)Nc3ccccc3N)cc1)[C@H](C)CN([C@@H](C)CO)C2=O
  -0.38, ·, 2.1, -8

# Profiles, looked up by structure.
# Cc1noc(C)c1NC(=O)Nc1cccc2c1O[C@@H](CN(C)Cc1ccc(C(=O)Nc3ccccc3N)cc1)[C@H](C)CN([C@@H](C)CO)C2=O reads YB-1 expr inh = -0.38; Shh pathway inh = ·; PD-1 reversal = 2.1; MITF inh = -8
# O=C(CSc1nnc(-c2cccs2)n1-c1cccc(C(F)(F)F)c1)c1ccc(F)cc1 reads YB-1 expr inh = ·; Shh pathway inh = ·; PD-1 reversal = -3.7; MITF inh = 27

# (cont.)
# Results follow in this order: YB-1 expr inh, Shh pathway inh, PD-1 reversal, MITF inh
COc1ccc(S(=O)(=O)Nc2ccc3c(c2)C(=O)N([C@H](C)CO)C[C@H](C)[C@H](CN(C)Cc2ccc4c(c2)OCO4)OCCCC[C@@H](C)O3)cc1
  0.027, -5, -2.4, -1
C[C@@H]1CN([C@@H](C)CO)C(=O)c2cc(NC(=O)Nc3ccc(C(F)(F)F)cc3)ccc2O[C@@H]1CN(C)Cc1ccc2c(c1)OCO2
  0.021, ·, -2.2, -4
Cc1cc(C(=O)Nc2cccc3c2O[C@H](CN(C)S(=O)(=O)c2cn(C)cn2)[C@H](C)CN([C@@H](C)CO)C3=O)n(C)n1
  0.19, 13, 0.2, -5
Cc1noc(C)c1NC(=O)Nc1ccc2c(c1)C(=O)N([C@H](C)CO)C[C@H](C)[C@H](CN(C)C(=O)Nc1ccc(C(F)(F)F)cc1)O2
  0.45, -29, -1.2, 12
Cc1ccc(S(=O)(=O)Nc2ccc3c(c2)CC(=O)N([C@@H](C)CO)C[C@H](C)[C@H](CN(C)C(=O)Nc2c(C)noc2C)O3)cc1
  0.25, -11, ·, -5
COc1cc([C@H]2OC[C@H]3[C@@H]2CO[C@@H]3c2cc(OC)c(O[C@@H]3O[C@H](CO)[C@@H](O)[C@H](O)[C@H]3O)c(OC)c2)cc(OC)c1O
  -0.46, 2, 0.5, 10
C[C@H]1CN([C@@H](C)CO)C(=O)c2cc(NC(=O)Nc3ccc(F)cc3)ccc2O[C@@H]1CN(C)Cc1ccc(-c2ccccc2)cc1
  0.11, -30, -0.6, 13
CCN(CC(=O)Nc1ccccc1SC)S(=O)(=O)c1ccc2ccccc2c1
  ·, ·, 0.5, -8
C[C@H](CO)N1C[C@H](C)[C@H](CN(C)CC2CC2)Oc2ccc(NS(C)(=O)=O)cc2C1=O
  0.31, -12, 1.1, 6
CC(C)Sc1nc(-c2cccs2)cc(C(F)(F)F)c1C#N
  -0.37, ?, -1.3, -19
C[C@@H]1CN([C@@H](C)CO)C(=O)Cc2cc(NC(=O)C3CCCCC3)ccc2O[C@@H]1CN(C)S(=O)(=O)c1ccc(Cl)cc1
  0.15, -52, -7.6, 23
Cc1cc([N+](=O)[O-])nn1CC(=O)Nc1cccc(O)c1
  ·, ·, -1.4, -8
COc1ccc(CN(C)C[C@H]2Oc3c(NS(C)(=O)=O)cccc3C(=O)N([C@@H](C)CO)C[C@H]2C)cc1
  -0.17, 25, ·, 1

# Bioassay records from PubChem BioAssay.
